Compound activity deposited in PubChem BioAssay by several laboratories.
MT1-MMP act inh – MT1-MMP (human) activation inhibition | HT1080 RFP-PRO-GFP cells, GFP/RFP ratio fluorescence, overnight; percent of plate control window, DMSO zero | 360,000 tested, 0.061% active | AID 651647 | GFP/RFP ratio change, % at 20 µM;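 active = GFP/RFP ratio change of at least 30% with cell ATP level not reduced by more than half and red fluorescence within 50% of control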; also: strong numbers were not always called active
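Compound: 20 µM single dose, 1% DMSO / System: HT1080 RFP-PRO-GFP cells / Controls: DMSO and RFP-L50D-GFP cell wells / Read-out basis: GFP/RFP fluorescence ratio / Schedule: overnight compound exposure at 37 °C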
CSC inhib – cancer stem cell inhibition; cancer stem cell-like cells viability, luminescence; inhibition, % at 7.5 µM; 300,000 tested, 1.1% active; AID 2717;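 active = mean at 75% or more and at least half the replicates too; inconclusive = mean and replicates disagree; tested in HMLE shEcad cells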;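 also: 0% = median of negative and 100% = median of positive control wells; the first replicate is given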
PABP FP inh – blocks human PABP binding to poly(A) RNA; AID 2014; P11940; fluorescence polarization; inhibition, % at 35 µM; 290,000 tested, 1% active;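 active = 50% or more with normal probe brightness, or confirmed in later tests; inconclusive = above 50% with abnormal brightness, or retests that disagree; inactive = below 50% or failed in later tests; about a fifth of its hits are not listed in these tables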;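 also: calls also rest on retests at 20 µM and on dose response follow-up; controls were probe without protein and protein plus probe with vehicle; some compounds called inactive have numbers as strong as hits; many hits fall short of the cut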
Rce1 inhib – blocks yeast Ras-converting enzyme; Q03530; yeast membranes, quenched prenylated peptide cleavage fluorescence; calls only; 290,000 tested, 0.27% active; AID 2563;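 active = fall in fluorescence gain of 50% or more versus controls, with final raw signal at or below 3038400; inconclusive = same 50% fall but final raw signal above 3038400; inactive = fall in fluorescence gain under 50%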;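 also: plate controls were neutral control wells for no effect and wells lacking membranes for full effect; tested at 10 µM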
Target sequence (Q03530 whole entry, looked up): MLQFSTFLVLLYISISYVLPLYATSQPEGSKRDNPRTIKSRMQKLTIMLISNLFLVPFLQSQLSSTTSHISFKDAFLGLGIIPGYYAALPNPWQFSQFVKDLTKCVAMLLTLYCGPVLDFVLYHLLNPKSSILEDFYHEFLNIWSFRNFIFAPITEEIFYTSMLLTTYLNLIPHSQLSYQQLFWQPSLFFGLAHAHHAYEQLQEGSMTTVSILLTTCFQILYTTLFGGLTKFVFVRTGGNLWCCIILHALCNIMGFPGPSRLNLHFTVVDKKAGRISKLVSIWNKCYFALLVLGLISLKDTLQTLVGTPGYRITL
Env fusion inh – HIV envelope-mediated fusion inhibition | HeLa-JRFL Env/CEM21 cell fusion, luciferase | inhibition, % at 12.3 µM | 360,000 tested, 1.1% active;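 active = mean replicate inhibition score of at least 50 and every replicate individually at or above 50; inconclusive = only one of the two criteria met; inactive = mean below 50 and not all replicates reaching 50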;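 also: 0% = plate neutral controls and 100% = maraviroc near 300 nM; one replicate is shown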
eIF4H FP inh – inhibitors of RNA binding by human eIF4H | Q15056 | eIF4H fluorescence polarization binding assay | inhibition, % at 35 µM | 290,000 tested, 0.94% active | AID 2012;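 active = 50% or more with normal probe brightness, or confirmed in later tests; inconclusive = above 50% with abnormal brightness, or retests that disagree; inactive = below 50% or failed in later tests; about a fifth of its hits are not listed in these tables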;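 also: calls also rest on retests at 20 µM and on dose response follow-up; 0% = protein and probe with vehicle and 100% = probe without protein; strong numbers were not always called active; many hits fall short of the cut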
Yeast UUG start – modulators of start codon recognition fidelity in yeast; S. cerevisiae UUG-firefly luciferase reporter, luminescence/redox ratio; AID 602363; 350,000 tested, 0.13% active; activity score, % at 18.7 µM;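 active = replicate mean at a twofold rise or more, about +100% in these data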;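 also: firefly luciferase made from a UUG start codon reports start codon fidelity; reporter light over untreated wells divided by growth signal over untreated wells; some hits fall short of that in this replicate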
eIF4H FP inh retest – second read-out of eIF4H FP inh, no call of its own (marks repeat the call); inhibition, %; compound at 20 µM; confirmation average;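 mean of two retest wells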
PABP FP inh retest – further read-out of PABP FP inh, marked with its call; inhibition, %; compound at 20 µM; confirmation repeats;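 mean of two retest wells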
MT1-MMP act inh RFP – further read-out of MT1-MMP act inh, marked with its call; RFP signal change, %; measured here: RFP expression control read;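 0 = vehicle wells; hits needed this value within 50% of zero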
Active calls of the source: *; i = inactive; ? = inconclusive; · = no result given; & = joins results of further samples. Some of the compounds tested; the hit share may differ from the screen's.

SMILES | MT1-MMP act inh | MT1-MMP act inh RFP | CSC inhib | PABP FP inh | Rce1 inhib | Env fusion inh | eIF4H FP inh | Yeast UUG start | others
O=c1[nH]c(=O)n(Cc2ccco2)c(O)c1C=NCc1ccco1 | -5.3 | 3.6 | -14.6 | 20.5 | i | · | 9.8 | ·
COc1ccc(-c2cc(=Nc3ccccc3)c3cc(C)ccc3o2)cc1 | 0.8 | 0.2 | 49.5 | 11.1 | i | -125.3 | -1.3 | -39.5
Cc1ccc(-c2nc3ccccc3c(=O)n2-c2ccc(Br)cn2)cc1 | 6.1 | 4.7 | -1.0 | -7.1 | i | 9.1 | 2.4 | ·
O=c1oc2ccccc2c(O)c1C(c1ccc([N+](=O)[O-])cc1)c1c(O)c2ccccc2oc1=O | 2.8 | -1.3 | · | 13.1 | i | -2.5 | 11.6 | 0.4
O=C(N/N=C/c1c(O)n(Cc2ccco2)c(=O)[nH]c1=O)c1ccccc1O | -2.0 | 5.8 | 7.2 | 25.5 | i | 1.7 | 53.2* | -17.4 | eIF4H FP inh retest=61.9*;PABP FP inh retest=44.8
N=C1c2ccccc2CN1NC(=O)c1ccccc1 | 3.3 | 4.0 | -3.5 | 7.2 | i | 5.3 | 6.6 | ·
CN1CCCN(C(=O)COc2cccc(C(F)(F)F)c2)CC1 | -1.3 | 0.3 | -2.4 | 0.9 | i | -24.6 | -5.7 | 9.9
COC(=O)C1=C(c2ccc3ccccc3c2)C[C@@H]2CC[C@H]1N2C(=O)N1CCC(C)CC1 | 1.9 | -5.8 | 23.7 | · | · | · | · | -2.4
COc1ccccc1N=C1SCCCN1C | -4.4 | 2.0 | 5.1 | · | i | -0.1 | · | -13.7
CCCCn1c(O)c(C(CC)=NCCN2CCCCC2)c(=O)[nH]c1=O | -7.7 | 2.3 | -13.0 | 16.7 | i | · | 22.0 | ·
Cc1cc(/C=C2\C(=O)NC(=O)N(c3ccc(Cl)cc3)C2=O)c(C)n1-c1cccc(C(=O)O)c1 | -11.0 | 5.3 | -4.9 | 41.6* | i | -14.4 | ? | -17.6 | PABP FP inh retest=121.7*
O=C(OCC(=O)c1ccc([N+](=O)[O-])cc1)/C(=C/c1ccc(Cl)cc1)NC(=O)c1ccccc1 | -5.8 | 1.7 | -5.2 | -3.6 | i | 27.1 | -4.9 | ·
CC1CCN(CC(=O)c2ccccc2Cl)CC1 | -6.0 | 1.5 | -11.1 | 8.6 | i | 14.1 | -2.4 | -13.5
NNP(=O)(CC(=O)c1ccccc1)c1ccccc1 (configuration not stated) | 2.0 | -1.1 | -15.7 | 2.3 | i | -7.0 | 2.7 | -8.3
O=c1c2ccccc2nc(-c2ccc(Cl)cc2Cl)n1-c1ccncc1 | -2.3 | -1.1 | -10.4 | 1.6 | i | -110.5 | 13.0 | 2.0
c1ccc(C(OCCN2CCN(c3ncccn3)CC2)c2ccccc2)cc1 | -2.1 | -4.7 | -2.5 | · | i | 12.2 | · | -2.1
CCOC(=O)C1=C(N)OC2=C(C(=O)CCC2)C12C(=O)N(CC(N)=O)c1ccccc12 (configuration not stated) | 2.4 | 3.8 | -4.7 | -3.0 | i | · | -8.6 | 3.9
C[C@H]1CN([C@@H](C)CO)C(=O)CCCn2nncc2CO[C@H]1CN(C)C(=O)Oc1cccc2ccccc12 | 0.9 | 3.7 | · | · | · | 1.5 | · | -9.5&18.3&-10.7
COc1ccccc1N1CCNCC1 | 3.2 | 4.3 | -14.4 | 14.4 | i | -11.9 | -6.3 | -3.8
COc1cccc(N2C(=O)NC(=O)C3(Cc4cc(C)ccc4N(C)C3)C2=O)c1 (configuration not stated) | 0.3 | 2.7 | -13.2 | 10.9 | · | · | -1.6 | 4.6
NCCc1c[nH]c2ccc(OCc3ccccc3)cc12 | -0.5 | 2.4 | -7.2 | -1.1 | i | -15.8 | 0.4 | ·
COc1ccc(-c2cc(=O)c3c(OC)c(OC)c(OC)cc3o2)cc1 | 6.0 | -8.9 | -11.9 | 11.5 | i | · | 3.0 | -6.4
C[C@@H]1O[C@@H](O[C@@H]2C=C3CC[C@@H]4C(CC[C@]5(C)[C@@H](c6ccc(=O)oc6)CC[C@]45O)[C@@]3(C)CC2)[C@H](O)[C@H](O)[C@H]1O (some centres not stated) | -43.6 | -30.5 | 107.5* | · | · | 93.1* | · | 4.5
COc1ccccc1CN1CCN(C(=O)COc2ccccc2)CC1 | -5.3 | -0.6 | -5.4 | 5.0 | i | 11.4 | -1.1 | -4.8
COc1ccc(CN2Cc3cc(-c4cccc(F)c4)ccc3-n3nncc3C2)cc1 | 1.1 | 1.1 | · | · | · | -16.4 | · | -3.2
(next part)
SMILES | MT1-MMP act inh | MT1-MMP act inh RFP | CSC inhib | PABP FP inh | Rce1 inhib | Env fusion inh | eIF4H FP inh | Yeast UUG start | others
CCOC(=O)C1C2c3ccccc3O[C@@]1(C)N=C1SCC(=O)N12 (some centres not stated) | 3.4 | -0.6 | -10.2 | 3.5 | i | · | 0.2 | ·
COc1ccc(Oc2c(C)oc3cc(OC(=O)N(C)C)ccc3c2=O)cc1 | -4.6 | -2.7 | -6.7 | 5.2 | i | 3.2 | 0.9 | 4.5
CC1=C(C(=O)Nc2ccccc2)S(=O)(=O)CCO1 | -1.2 | 0.6 | 45.0 | -6.8 | i | 13.2 | 0.9 | ·
Cc1c2cnn(CC(=O)N3CCC4(CC3)OCCO4)c(=O)c2c(C)n1Cc1ccccc1Cl | -0.1 | 2.4 | -15.4 | 1.4 | i | -3.7 | 1.3 | -10.0
CC(Cc1ccccc1)NC(=O)/C=C/c1ccc(Cl)cc1 (configuration not stated) | 3.8 | 6.0 | -8.3 | 31.9 | i | -2.1 | -15.5 | ·
COc1ccc(OC)c(-n2c(O)c(/C=C3\C=Nc4ccccc43)c(=O)[nH]c2=O)c1 | -2.8 | -0.4 | 6.0 | 48.6 | i | 0.0 | ? | 2.9
COC(=O)C1=C(c2c(C)noc2C)C[C@@H]2CC[C@H]1N2C(=O)NCCOc1ccc(OC)cc1 | -3.6 | -0.1 | -22.5 | · | · | -18.2 | · | -11.9
N#Cc1c(/N=C/c2c(O)n(Cc3ccco3)c(=O)[nH]c2=O)sc2c1CCCC2 | -94.6 | 6.7 | -12.4 | ? | i | · | ? | -0.5
Cc1cccc(N2C(=O)NC(=O)/C(=C\c3cnn(-c4ccccc4)c3)C2=O)c1 | -8.6 | 5.3 | -2.5 | -12.4 | i | · | -2.6 | ·
N#Cc1ccccc1Cn1cc(C(=O)c2cccs2)c2ccccc21 | -0.9 | -7.2 | -15.9 | 1.4 | i | 5.2 | 2.0 | -10.0
COc1ccc(CC(C)NCCC(c2ccccc2)c2ccccc2)cc1 (configuration not stated) | -0.2 | -4.6 | 0.8 | -4.6 | i | 18.3 | 0.5 | -17.4
c1ccc(C2CN3CCC2CC3)cc1 (configuration not stated) | 3.0 | 5.5 | -11.7 | 1.5 | i | -0.6 | -0.3 | -20.3
COc1ccc(NC(c2ccccc2F)P(=O)(Oc2ccccc2)Oc2ccccc2)cc1 (configuration not stated) | -9.0 | -7.8 | 30.9 | -3.7 | i | 17.0 | 6.6 | ·
Cc1ccccc1NC(=S)NC(NC(=O)CF)C(Cl)(Cl)Cl (configuration not stated) | 5.7 | 3.9 | 8.4 | 11.0 | i | -16.2 | 0.1 | ·
COC(=O)C1=C(c2ccc(OCc3ccccc3)cc2)C[C@@H]2CC[C@H]1N2C(=O)NCc1cccc(C(F)(F)F)c1 | 5.3 | -14.6 | 31.3 | · | · | -169.4 | · | -11.0
Oc1ccc2ccccc2c1CN1CC=C(c2ccccc2)CC1 | -1.8 | -0.3 | -9.5 | -1.8 | · | -1.0 | -10.5 | ·
O=c1c2ccccc2nc(-c2ccco2)n1-c1nccs1 | -2.5 | -8.8 | -4.4 | -1.2 | i | -0.5 | -3.5 | -15.1
Cc1cc(C(=O)OCC(=O)Nc2cccc(F)c2)c(C)n1C1CC1 | 1.5 | -5.5 | 12.4 | · | · | · | · | -5.4
OC(c1ccncc1)(c1ccc(F)cc1)c1ccc(F)cc1 | 2.3 | 4.4 | 8.2 | -16.8 | i | -2.7 | -8.5 | -2.2
COc1ccc(-c2nc3ccccc3c(=O)n2-c2nccs2)cc1 | 1.1 | 0.5 | 5.6 | -5.0 | i | -61.2 | 9.3 | -20.3
COc1ccc(NP2(=O)NCCCN2)cc1 | 4.1 | 0.8 | · | · | · | -6.3 | · | 0.1
COc1ccccc1[As](=O)(O)CC(O)COc1ccc(Cl)cc1Cl (configuration not stated) | · | · | 15.6 | 2.2 | i | -58.3 | 3.9 | ·
O=C(CN1CCOCC1)Nc1ccc(Br)cc1C(=O)c1ccccc1 | -3.0 | -4.8 | -2.4 | -7.1 | i | · | 3.2 | -6.3
c1ccc(CN2CCN(Cc3ccc4c(c3)OCCO4)CC2)cc1 | 2.8 | 1.1 | 15.0 | 0.4 | i | · | -1.8 | -1.1
CC(=NC1CCN(Cc2ccccc2)CC1)c1c(O)n(C)c(=O)n(C)c1=O | 8.3 | 4.8 | 6.3 | 1.9 | i | 29.1 | 0.5 | -12.5
Remaining list, next part:
SMILES | MT1-MMP act inh | MT1-MMP act inh RFP | CSC inhib | PABP FP inh | Rce1 inhib | Env fusion inh | eIF4H FP inh | Yeast UUG start | others
CC(C)CCN1CCN(Cc2c(F)cccc2Cl)CC1CCO (configuration not stated) | -0.6 | 3.1 | 13.8 | 0.9 | i | 19.5 | 2.8 | ·
C[C@]12CCC3C(CC[C@H]4C[C@@H](O)CC[C@]34C)C1CC[C@@H]2OC(=O)[C@H](N)CCCCN (some centres not stated) | 7.5 | -2.4 | 10.5 | · | · | -3.3 | · | -6.7
CCOP(=O)(Cc1ccc(C(=O)CC)o1)OCC | 1.3 | 6.5 | -13.7 | 1.0 | · | 13.7 | 6.2 | -12.9
COc1cc(OC)c(OC)cc1/C=C1\C(=O)NC(=O)N(Cc2ccccc2)C1=O | -8.2 | -2.0 | -13.1 | ? | i | 17.1 | 37.5 | -15.9
C=CCOC(=O)N1Cc2ccccc2-n2nncc2C1 | -0.1 | 1.4 | · | · | · | -15.1 | · | -12.6
Oc1ccccc1CN(CCc1ccccc1)Cc1ccccc1 | -4.4 | -7.2 | 21.8 | 7.4 | i | -5.9 | -0.9 | 8.0
COc1ccc(Cn2c(N)c(C(=O)NCc3ccco3)c3nc4ccccc4nc32)cc1OC | -11.1 | 9.6 | -2.9 | 7.5 | · | · | 12.3 | -13.8
C=CCn1c(O)c(C(C)=NC2CCN(Cc3ccccc3)CC2)c(=O)[nH]c1=O | 3.1 | 1.5 | -3.2 | -0.3 | i | 5.5 | -2.0 | -14.0
CCN(CC)CCN=Cc1c(O)n(CCc2ccccc2)c(=O)[nH]c1=O | -12.9 | 2.2 | 13.8 | 39.9 | i | 11.2 | 44.6 | -16.0
CN1CCN(c2cc(N3CCCC3)c([N+](=O)[O-])cc2F)CC1 | 4.0 | 6.8 | -12.8 | -6.0 | i | · | -0.7 | -18.0
COc1cc(/C=C/c2nc3ccccc3c(=O)n2-c2cccc(O)c2)ccc1O | -166.1 | -5.4 | 24.7 | 7.5 | i | 25.2 | 24.2 | -10.9
CCCCCCC(=O)N/N=C/c1c(O)n(C2CC2)c(=S)[nH]c1=O | 6.6 | 7.9 | 1.3 | 1.3 | i | -2.0 | 5.4 | ·
